Bioassay records (PubChem BioAssay)
BJeLR lethal: MLPCN primary cell-based screen for lethality selective to Ras in HRASV12 cells | BJeLR (HRASV12) viability, CellTiter-Glo ATP luminescence, 48 h; reference of the scale not given here | inhibition, % (test concentration not listed) | 0.17% of 300,000 active | AID 1554, 2009;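 active = replicate mean above 50%; inconclusive = above 50% but judged a plate artefact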;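 also: 50 nL library stock added to about 25 µL; numbers are from one replicate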
Bead autofluor: flagged as autofluorescent in microsphere protease counterscreen. fluorescence intensity (concentration not given with the values). compound autofluorescence counterscreen, microsphere flow cytometry; stronger effect = higher value. AID 624483. 3.1% of 360,000 active;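 active = at least 3 SD above the mean of all compounds, about 16000 in these data; inconclusive = too few beads counted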;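 also: 100 nL of 1 mM stock went into each well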
PrP 5UTR inh: inhibition of PrP 5' UTR reporter expression. cell-based PrP 5' UTR mRNA reporter, plate reader. inhibition, % (no concentration beside the values). 0.35% of 340,000 active;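 active = every replicate at 50% or more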;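 also: 0 = median of the neutral control wells; tested in H4 reporter cells; numbers are from one replicate; inactives centre near -14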
Sa RN4220 lethal: growth inhibition of S. aureus RN4220, primary screen, OD600; 16 h; inhibition, % (no concentration beside the values); 0.33% of 330,000 active; AID 1259311, 2017;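 active = z-score of -3 or lower and OD600 up to 0.18 on both plates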;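 also: plate controls were untreated cells for no effect and reference antibiotic for full effect; stock transfer was 100 nL into about 80 µL; one replicate is shown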
Mtb hypoxia rep: PubChem AID 1159583; 0.1% of 300,000 active; fluorescence inhibition, % (test concentration not listed); M. tuberculosis hypoxia-regulated fluorescent reporter, fluorescence;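 active = 35 to 45% if threefold the growth effect, above 45% if 1.5-fold the growth effect; inactive = the rest, general growth blockers included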;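 also: wells of about 50 µL received 100 nL stock; 0% = vehicle wells and 100% = reference inhibitor wells; whole bacteria with a GFP reporter of the hypoxia response; strong numbers were not always called active; many hits fall short of the cut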
Sa ugtP lethal: growth inhibition of ugtP-null S. aureus, primary screen, RN4220 ugtP deletion, OD600; 16 h; some inactives read as strong as hits; growth inhibition, % (concentration not given with the values); 0.54% of 330,000 active;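 active = z-score under -3 and OD600 up to 0.15 on both plates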;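 also: plate controls were untreated wells for no effect and antibiotic for full effect; wells of about 80 µL received 100 nL stock; the first replicate is given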
Mtb hypoxia rep growth: also measured in Mtb hypoxia rep; calls as there; growth inhibition, %; measured here: M. tuberculosis growth (absorbance);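 0% = vehicle and 100% = reference antibiotic; read after six days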
The depositor's hits bear a star; u = inconclusive; x = no result given; & = joins results of further samples.

SMILES	BJeLR lethal	Bead autofluor	PrP 5UTR inh	Sa RN4220 lethal	Mtb hypoxia rep	Mtb hypoxia rep growth	Sa ugtP lethal
CCSc1ccccc1C(=O)N1CCC2(CC1)CC(=O)c1ccccc1O2	7	6179	-6	6.1	-3	4	8
CC(C)Sc1nc2ccsc2c(=O)[nH]1	-1	4116	-23	2.1	0	1	1
COc1cc(CN=C(C)c2c(O)n(C3CCCCC3)c(=O)[nH]c2=O)cc(OC)c1	-15	5598	-17	2.8	16	12	4
Cc1ccc(S(=O)(=O)c2cc3ccccc3oc2=O)cc1	-5	2521	-4	7.3	6	-4	6
Cc1ccc(/C=N/Nc2nncn2N)cc1	-1	3596	14	x	x	x	x
COc1ccc(NC(=O)CSc2nc(-c3ccc(C)cc3)cc(C(F)(F)F)c2C#N)cc1	-1	11215	-9	6.8	9	6	-1
COc1cc(NC(=O)C2CCCN(S(=O)(=O)c3cnc[nH]3)C2)cc(OC)c1 (stereo unspecified)	4	5284	-9	-1.4	x	x	4
CCCCOC(=O)C1C2CCC(O2)C1C(=O)OCC (stereo unspecified)	x	3530	-16	1.7	9	7	2
Cc1cc(C(=O)NN=Cc2cccn2C)n[nH]1	x	x	x	1.0	8	4	15
Cc1ccc(S(=O)(=O)Nc2nc3ccccc3s2)cc1[N+](=O)[O-]	-1	3439	57*	7.9	9	8	4
CCOC(=O)Cc1csc(NC(=O)CSc2nc3sc(C(=O)O)c(C)c3c(=O)[nH]2)n1	-11	22793*	-4	5.9	11	9	0
Cc1ccc(S(=O)(=O)N2CCCC(C(=O)N3CCN(c4ccccc4)CC3)C2)cc1 (stereo unspecified)	-7	6031	-6	3.0	3	8	10
O=C(O)CCSc1nc(C(F)(F)F)cc(=O)n1-c1ccccc1	1	9176	-7	1.5	4	3	3
O=C(CC1C(=O)NCCN1C(=O)Nc1ccccc1)Nc1ccc2c(c1)OCCO2 (stereo unspecified)	-1	16409*	6	0.1	-3	-2	1
COc1ccc2nc(SCC(=O)NC(C)c3ccccc3)[nH]c2c1 (stereo unspecified)	x	5798	-25	1.1	5	2	6
COCCN(C(=S)Nc1ccccc1OC)C1CCN(C(C)=O)CC1	-11	2700	-17	-0.2	0	4	11
Cc1cc(-c2ccccc2)nc2cc(C(=O)NCc3ccco3)nn12	-6	4433	-15	1.5	x	x	6
O=C(CSc1nnc(-c2cccnc2)o1)c1cc2ccccc2oc1=O	5	4607	-26	1.4	x	x	1
COc1ccc(C2NC(c3ccc(OC)cc3OC)C(C)C(=O)C2C)c(OC)c1 (stereo unspecified)	2	4264	-24	5.6	10	9	-4
O=C(O)CCOc1ccc2c(c1)OCCO2	3	2479	-22	-9.2	-1	2	-11
O=C(Nc1ncccn1)c1ccc(C(F)(F)F)cc1	7	2536	-51	3.7	3	11	4
Cc1cccc([C@@H]2[C@@H]3C(=O)N(Cc4ccccc4)C(=O)[C@@H]3[C@]3(C)C(=O)N(c4ccc(C(F)(F)F)cc4)C(=O)N23)c1	14	3392	-11	x	x	x	x
Cc1ccc2c(c1)NC(=O)c1cc([N+](=O)[O-])ccc1O2	6	4452	-23	2.3	3	5	-1
CCN(CC)CCSc1nnc(Nc2ccccc2)n1-c1ccccc1	7	3965	-34	3.0	-7	6	9
CC(=O)Nc1cccc(C(=O)N2CCN(S(=O)(=O)c3ccc(C4CCCCC4)cc3)CC2)c1	x	u	7	3.1	0	-2	-4
COc1ccc(CCNC(=O)Cn2nc([N+](=O)[O-])c(Br)c2C)cc1OC	8	6054	-2	3.8	-1	6	15
CC(=O)Nc1ccc(NC(=O)CSc2nc3nc(C)cc(C)c3c(=O)[nH]2)cc1	11	5916	-12	-1.2	13	4	2
O=C(O)c1cc2nc(-c3ccccc3)cc(-c3ccccc3)n2n1	5	3583	-18	2.4	15	7	-8
O=C(NCc1ccccc1)c1nnc(CS(=O)(=O)c2ccccc2)o1	8	5868	-9	11	3	8	13
CC1CCN(C(=O)c2[nH]cnc2C(=O)NCC(=O)OC(C)(C)C)CC1	10	4093	-22	6.5	20	4	7
Cc1c(C)n(CC(O)CN2CCCCC2)c2ccccc12 (stereo unspecified)	-5	3657	-11	2.4	7	7	2
CNC(=O)Cn1c(=O)n(C)c2ccccc21	5	2122	-8	-7.6	2	9	-4
O=C(NCc1nc2ccccc2[nH]1)C1=C[C@@H](c2ccc(Br)cc2)C[C@@H](OCCCCO)O1	-4	2919	-11	x	x	x	x
OCCN1CCN(CC(O)COc2ccc3ccccc3c2)CC1 (stereo unspecified)	1	3565&2308	-4	-1.8&15	-13&5	3&1	-8&15
Cc1ccc(-c2nc(NN=Cc3cccc([N+](=O)[O-])c3)c3ccccc3n2)cc1	x	x	x	-3.1	4	8	-22
CC1(/[N+]([O-])=C\c2ccccc2F)CCCCC1=O (stereo unspecified)	11	4003	-19	4.6	5	4	11
CC1=NN(C(N)=S)C(=O)C1N=Nc1ccc(C)c(Br)c1 (stereo unspecified)	-5	3974	-66	18	12	15	17
CC(=O)N1CCN(S(=O)(=O)c2ccc(S(=O)(=O)NC3CC3)cc2)CC1	6	9774	-12	0.8	-4	-4	-3
CCc1nnc(NS(=O)(=O)c2ccc(NC(=O)c3cc(Cl)ccc3Cl)cc2)s1	6	2647	-25	-2.6	2	2	11
O=C(c1ccccc1F)N1CCN(c2ccc([N+](=O)[O-])c3ncccc23)CC1	1	2530	-12	7.6	2	6	4
Cc1cc(Br)cc(Br)c1OCC(=O)NNC(=O)Nc1ccccc1	5	4092	8	4.9	-4	-7	-6
CC(C)(C)C(=O)/C=C(\N)c1ccncc1	5	4277	-9	4.3	x	x	-2
COc1ccc(OCCOC(=O)c2cccc(-n3cnnn3)c2)cc1	x	20878*	-5	2.5	1	1	6
Cc1c(-n2c(=S)[nH]c3ccccc3c2=O)c(=O)n(-c2ccccc2)n1C	5	14419	-11	5.1	7	1	9
COCCN1CN=C(Nc2nc3ccccc3o2)NC1	-9	3155	-20	2.0	-1	9	-2
COc1ccc(C2SCCN2S(=O)(=O)c2ccccc2)cc1 (stereo unspecified)	8	4628	-39	8.3	16	13	8
Cn1c(SCC(=O)Nc2ccccc2Cl)nnc1C1CC1	-7	3034	-22	-6.5	-5	-2	-1
Cc1ccc(CNC(=O)CN(Cc2ccccc2)S(C)(=O)=O)cc1	10	4757	-30	-1.4	x	x	7
CS(=O)(=O)c1ccc2nc(NC(=O)c3ccc(Cl)nc3)sc2c1	x	3188	-26	0.2	3	6	14
CN(Cc1cc2ccccc2[nH]c1=O)C(=O)C1CCCCC1	-1	2468	-6	5.9	6	7	0

Next results follow:
SMILES	BJeLR lethal	Bead autofluor	PrP 5UTR inh	Sa RN4220 lethal	Mtb hypoxia rep	Mtb hypoxia rep growth	Sa ugtP lethal
CCCCCCC(=O)Oc1ccc(N2C(=O)CCC2=O)cc1	-1	2099	-6	4.0	-4	0	5
COc1cc(/C=C/C(=O)c2ccc3c(c2)OCO3)cc(OC)c1OC	x	3647	-10	11	16	9	12
Cn1c(=O)c(=O)n(C)c2cc(S(=O)(=O)N3CCCCCC3)ccc21	0	19386*	-12	3.6	0	5	3
Cc1ccc(C(c2nnnn2CS(=O)(=O)c2ccc(C)cc2)N2CCC(C(N)=O)CC2)cc1 (stereo unspecified)	5	3789	-19	3.4	x	x	7
CC(C)CN(CC(C)C)C(=O)Nc1ccc(F)cc1F	5	4135	-14	4.1	1	1	1
Fc1ccc(NC(=S)NCCc2ccccc2)c(F)c1F	11	9959	-31	-1.5	11	9	-9
Cc1ccc2cc3cc(C(=O)NC4CCCCC4)oc3nc2c1	-5	5933	-37	2.9	5	2	9
COc1ccc(/C=N/NC(=O)C(=O)/C=C2\NC3(CCCC3)Cc3ccccc32)cc1	8	2630	3	x	x	x	x
CC(C)COc1nc2c(c(=O)n(C)c(=O)n2C)n1C	0	3405	-15	2.2	8	6	5
CC(C)c1ccc(NC2CCCN(C(=O)c3cccnc3)C2)cc1 (stereo unspecified)	1	6035	-1	2.7	4	3	3
N#CCC(CNc1ncc(C(F)(F)F)cc1Cl)OC(=O)c1ccc(Cl)cc1Cl (stereo unspecified)	8	7962	-34	4.3	4	6	-2
O=C1CN2C(=Nc3ccc(Br)cc3C2c2ccccc2)CCN1 (stereo unspecified)	1	2527	-23	-1.1	-6	13	-6
Cc1ccc(OCc2nnnn2-c2ccccc2)cc1	3	1876	-10	3.5	-4	5	0
CC(=O)N/C(=C/C(C)C)c1ccccc1	x	2917	-8	-2.1	11	2	9
CC(C)NC(=O)Cn1c(SCC(=O)N2c3ccccc3CC2C)nc2ccccc21 (stereo unspecified)	2	7411	-17	4.4	3	1	8
COc1ccc(CN(CC(=O)NCc2ccco2)C(=O)CCC(=O)Nc2ccccn2)cc1	-5	2608	-7	0.5	x	x	2
C#Cc1ccc(C(=O)NCc2ccc(N3CCCC3=O)cc2)cc1	4	4452	-1	-0.8	-9	8	-2
CCc1ccc(-c2nc(SCC(=O)N(CCOC)c3c(N)n(Cc4ccccc4)c(=O)[nH]c3=O)n[nH]2)cc1	3	5687	-5	2.9	-3	-1	6
CN(C)C(CNC1CC(C)(C)NC(C)(C)C1)c1cccc(F)c1 (stereo unspecified)	-14	3939	-27	-3.4	6	-5	6
CC1(C(=O)N/N=C/c2ccccc2)CC1(Cl)Cl (stereo unspecified)	-17	3448	-11	x	x	x	x
Cc1ccc(S(=O)(=O)N(C)C)cc1NC(=O)/C=C/c1cccs1	-3	2577	5	3.0	15	9	2
Cn1c(SCC(=O)N2CCCC2)nnc1-c1ccc2c(c1)OCO2	2	6294	-19	x	x	x	x
Fc1ccccc1COc1ccc(/C=N/n2cnnc2)cc1	9	8697	-23	x	x	x	x
COC(=O)c1ccc(-n2cnc3ccccc32)nc1	-6	2572	-29	2.9	-3	12	-4
S=c1[nH]nc(C2CCCCC2)n1N=Cc1ccccn1	x	x	x	3.2	-11	-6	-1

Copied from the listing for reference:
SMILES	BJeLR lethal	Bead autofluor	PrP 5UTR inh	Sa RN4220 lethal	Mtb hypoxia rep	Mtb hypoxia rep growth	Sa ugtP lethal
COc1ccc(/C=N/NC(=O)C(=O)/C=C2\NC3(CCCC3)Cc3ccccc32)cc1	8	2630	3	x	x	x	x
CC(C)COc1nc2c(c(=O)n(C)c(=O)n2C)n1C	0	3405	-15	2.2	8	6	5
CC(C)c1ccc(NC2CCCN(C(=O)c3cccnc3)C2)cc1 (stereo unspecified)	1	6035	-1	2.7	4	3	3
N#CCC(CNc1ncc(C(F)(F)F)cc1Cl)OC(=O)c1ccc(Cl)cc1Cl (stereo unspecified)	8	7962	-34	4.3	4	6	-2
O=C1CN2C(=Nc3ccc(Br)cc3C2c2ccccc2)CCN1 (stereo unspecified)	1	2527	-23	-1.1	-6	13	-6
Cc1ccc(OCc2nnnn2-c2ccccc2)cc1	3	1876	-10	3.5	-4	5	0
CC(=O)N/C(=C/C(C)C)c1ccccc1	x	2917	-8	-2.1	11	2	9
CC(C)NC(=O)Cn1c(SCC(=O)N2c3ccccc3CC2C)nc2ccccc21 (stereo unspecified)	2	7411	-17	4.4	3	1	8
COc1ccc(CN(CC(=O)NCc2ccco2)C(=O)CCC(=O)Nc2ccccn2)cc1	-5	2608	-7	0.5	x	x	2
C#Cc1ccc(C(=O)NCc2ccc(N3CCCC3=O)cc2)cc1	4	4452	-1	-0.8	-9	8	-2
CCc1ccc(-c2nc(SCC(=O)N(CCOC)c3c(N)n(Cc4ccccc4)c(=O)[nH]c3=O)n[nH]2)cc1	3	5687	-5	2.9	-3	-1	6
CN(C)C(CNC1CC(C)(C)NC(C)(C)C1)c1cccc(F)c1 (stereo unspecified)	-14	3939	-27	-3.4	6	-5	6
CC1(C(=O)N/N=C/c2ccccc2)CC1(Cl)Cl (stereo unspecified)	-17	3448	-11	x	x	x	x
Cc1ccc(S(=O)(=O)N(C)C)cc1NC(=O)/C=C/c1cccs1	-3	2577	5	3.0	15	9	2
Cn1c(SCC(=O)N2CCCC2)nnc1-c1ccc2c(c1)OCO2	2	6294	-19	x	x	x	x
Fc1ccccc1COc1ccc(/C=N/n2cnnc2)cc1	9	8697	-23	x	x	x	x
COC(=O)c1ccc(-n2cnc3ccccc32)nc1	-6	2572	-29	2.9	-3	12	-4
S=c1[nH]nc(C2CCCCC2)n1N=Cc1ccccn1	x	x	x	3.2	-11	-6	-1
